CtBP-E1A inh – inhibitors of CtBP/E1A interaction; AlphaScreen GST-E1A/His-CtBP binding, 1536-well; hits give low values; control for the full effect not named in the record; 340,000 tested, 0.49% active; activity change, % (no concentration beside the values); in the data active means activity change below about -65%; inconclusive means about -30% to -65%; inactive means above about -30%; also: % is scaled to controls: 0 for no effect and ±100 for the full control effect; compound concentration not given in the record
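Protein mix (5X: 125 nM each GST-E1A, His-CtBP) was incubated with pinned compound 2 h at 37 deg C in dark, in 50 mM Tris pH 8.0 buffer with 300 mM NaCl. Glutathione donor and nickel acceptor beads followed; AlphaScreen signal read after 1 h.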
gsp ag – gsp mutant agonism; Potency, µM (titrated, usually from 76.9 µM), inactives show top-dose activation (cAMP increase), hits mostly activators; gsp mutant cells, cAMP HTRF, 30 min; control for the full effect not named in the record; 340,000 tested, 0.13% active; AID 624287; active = well fitted activation curve with a large enough effect; inconclusive = small, poorly fitted or top-dose-only effect, or another doubt; inactive = no such curve, though single readings can be large or run the other way; cell line not stated here;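 also: phosphodiesterase inhibitor Ro 20-1724 added with compounds to block cAMP breakdown; potency is read from the fitted curve at half-maximal effect; nearly all actives have a fitted effect of over 60% in size; about a fifth of the inactives were tested at one dose only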
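Cells in DMEM/10% FBS with G418 were pretreated with compounds in DMSO plus […] (300 uM stock) for 30 min at 37C. cAMP was measured by HTRF (cAMP-d2 plus anti-cAMP antibody-K) after 30 min at room temperature.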
Six1-Eya2 inh – Six1/Eya2 interaction inhibition | Q15475+O00167 | AlphaScreen GST-Six1/His-Eya2 binding, biochemical; hits give low values; control for the full effect not named in the record | activity change, % (test concentration not listed) | 360,000 tested, 0.56% active | AID 651725; in the data active = activity change below about -65%; inconclusive = about -30% to -65%; inactive = above about -30%; also: % is scaled to controls: 0 for no effect and ±100 for the full control effect; compound concentration not given in the record
Target sequence (O00167 whole entry, looked up): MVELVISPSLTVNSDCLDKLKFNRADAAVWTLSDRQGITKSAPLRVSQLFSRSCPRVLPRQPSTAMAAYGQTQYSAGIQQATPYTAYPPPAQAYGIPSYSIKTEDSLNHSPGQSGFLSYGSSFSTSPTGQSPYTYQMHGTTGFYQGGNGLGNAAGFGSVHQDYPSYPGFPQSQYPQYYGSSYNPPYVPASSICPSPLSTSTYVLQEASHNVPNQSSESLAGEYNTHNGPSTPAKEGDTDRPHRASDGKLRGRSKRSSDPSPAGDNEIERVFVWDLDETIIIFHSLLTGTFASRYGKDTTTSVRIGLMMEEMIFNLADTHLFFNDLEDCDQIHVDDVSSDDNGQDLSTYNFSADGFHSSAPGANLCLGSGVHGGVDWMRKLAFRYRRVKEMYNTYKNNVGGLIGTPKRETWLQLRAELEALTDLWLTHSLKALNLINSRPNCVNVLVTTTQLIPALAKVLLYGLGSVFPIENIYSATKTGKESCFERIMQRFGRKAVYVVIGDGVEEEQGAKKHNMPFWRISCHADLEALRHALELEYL
Target sequence (Q15475 whole entry, looked up): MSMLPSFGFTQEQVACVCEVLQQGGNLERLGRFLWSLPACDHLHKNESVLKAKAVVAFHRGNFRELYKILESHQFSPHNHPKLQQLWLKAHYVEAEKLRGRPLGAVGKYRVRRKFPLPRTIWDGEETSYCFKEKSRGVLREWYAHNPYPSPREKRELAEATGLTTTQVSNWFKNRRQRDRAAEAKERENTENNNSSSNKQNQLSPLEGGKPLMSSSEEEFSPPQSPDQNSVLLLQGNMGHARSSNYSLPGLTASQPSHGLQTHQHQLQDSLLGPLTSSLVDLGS
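AlphaScreen with GST-Six1 and His-Eya2 (5X mix: 250 nM and 500 nM), glutathione donor and nickel acceptor beads; buffer 50 mM Tris pH 8.0, 300 mM NaCl, 1 mM TCEP; 1 h at 37 C in the dark.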
gsp antagonist – antagonists of gsp mutant (McCune-Albright syndrome); gsp-mutant cells, cAMP HTRF, 30 min; control for the full effect not named in the record; Potency, µM (series often up to 76.9 µM), inactives show top-dose activity change, negative = inhibition, most hits filed as inhibitors; 340,000 tested, 0.4% active; active = falling curve of any shape with a large fitted effect; inconclusive = falling curve, mostly with a smaller effect; inactive = flat or rising curve; cell line not stated here;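 also: intracellular cAMP measured with PDE inhibitor Ro 20-1724 present during compound exposure; potency is read from the fitted curve at half-maximal effect; % is scaled to controls: 0 for no effect and ±100 for the full control effect; nearly all actives have a fitted effect of over 65% in size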
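HTRF cAMP measurement after 30 min RT detection following 30 min, 37C compound treatment alongside […] (added as 300 uM solution) in G418-selected cells seeded at 2000/well and grown 16–24 h.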
D2 PAM – human D2 receptor positive allosteric modulation; DiscoveRx D2 beta-arrestin cells, luminescence, 90 min; 100% = 57 uM dopamine signal; potentiation, % (test concentration not listed); 360,000 tested, 0.23% active; active = potentiation of 50% or more; inconclusive = 30% to 50%; inactive = 30% or less;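 also: compound concentration not given in the record; tested on top of an EC20 dose of dopamine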
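PathHunter D2 cells, attached overnight at 37 deg C, received compound in DMSO plus dopamine at EC20 (50 nM final) for 90 min at 37 deg C. Beta-arrestin recruitment was read as luminescence after 1 h with detection reagent at ambient temperature.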
D2 ag – agonists of human D2 dopamine receptor (beta-arrestin); P14416; DiscoveRx PathHunter D2 beta-arrestin, luminescence, 90 min; 100% = 57 uM dopamine signal; activation, % (concentration not given with the values); 360,000 tested, 0.084% active; AID 624465; in the data active = activation above about 40%; inconclusive = about 15% to 40%; inactive = below about 15%; also: compound concentration not given in the record; the text of the record calls up to 30% inactive
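Agonist mode: compounds alone added to overnight-plated D2 PathHunter cells for 90 min at 37 C, with 57 uM final dopamine (EC100) defining full response. Beta-arrestin recruitment detected by chemiluminescent reagent, read after 1 h at ambient temperature.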
The depositor's hits bear a star; ? = inconclusive; . = not tested or not shown; [ ] = another dose, or the depositor's remark.

SMILES,CtBP-E1A inh,gsp ag,Six1-Eya2 inh,gsp antagonist,D2 PAM,D2 ag
COc1cc(NC(=O)C2C3CCC(O3)C2C(=O)O)cc(OC)c1 (configuration not stated),4,-10%,15,9%,2,-3.8
O=C(N/N=C/c1ccccn1)c1ccc(NC(=O)c2ccccc2Cl)cc1,?,-1%,?,-18%,-4,1.1
COC(=O)c1cc(C(=O)Nc2cc(C)ccn2)cc([N+](=O)[O-])c1,-3,6%,4,-12%,?,3.5
O=C(Nc1ccc(S(=O)(=O)N2CCOCC2)cc1)C1COc2ccccc2O1 (configuration not stated),1,-31%[inhibitor],-2,-18%,-13,-0.4
CCOC(=O)C1(CC2CC2)CCN(S(=O)(=O)C[C@]23CC[C@H](CC2=O)C3(C)C)CC1,2,?,-4,5%,-7,2.9
O=C(CSc1nccn1-c1ccc(Cl)cc1)N1CCCc2ccccc21,-16,-25%,-26,10%,-39,-3.2
O=C(NC(c1ccccc1)c1ccccc1)c1ccc(=O)[nH]n1,.,17%[15.4 µM],4,-5%,-2,-1.1
CCOc1ccc(NC(=O)Cn2nnc(C(=O)NCCc3ccc(OC)c(OC)c3)c2N)cc1,1,-26%,1,?,18,-2.3
CCOC(=O)N1CCN(C(=O)COc2ccc(Br)cc2)CC1,6,9%,7,5%,9,-0.6
Cn1c(SCc2nc3ccccc3[nH]2)nnc1-c1cccs1,5,-67%,4,3%,-12,-0.2
Cc1cc(NC(=O)C(C)SCC(=O)OC(C)C(=O)Nc2ccc(F)cc2Cl)no1 (configuration not stated),3,?,1,8%,-16,-1.6
COC(=O)c1ccc(NC(=O)C[n+]2ccccc2C)cc1,.,1%,6,1%,-49,-4.7
Cc1ccc2cc(CCNC(=O)c3ccc(Br)o3)c(=O)[nH]c2c1,4,-8%,-7,7%,-14,3.6
CC1(C)NC(=O)N(CC(=O)OCC(=O)c2ccc(F)cc2)C1=O,-14,11%,9,14%,-6,-4.7
COc1ccc(OCC(=O)N2CCc3ccccc32)c([N+](=O)[O-])c1,-1,-1%,-8,.,-22,-3.6
N/C(=N\OC(=O)Cc1ccccc1[N+](=O)[O-])c1cccnc1,-1,-12%[15.4 µM],-2,8%,15,4.6
Cc1nccn1CC(=O)c1ccc(O)c(O)c1,1,-21%,1,7%,-6,-3.3
CC(NC(=O)CN(C)CC(=O)Nc1ccccc1Br)c1ccccc1 (configuration not stated),.,-31%,-1,-2%,-3,-2.0
Cc1ccc2nc(NCCC(=O)O)nc(-c3ccccc3)c2c1,12,?,1,-16%,-1,-3.4
Cc1cc(C(=O)NCc2ccco2)no1,1,-3%,-2,-9%,-7,-1.8
CC1C(C(=O)Nc2ccccc2)CCCC1(C)C(=O)O (configuration not stated),-3,17%,4,-8%,-4,0.3
Cc1cccc(C)c1OCC(=O)Nc1cccc(S(=O)(=O)N2CCCCCC2)c1,3,?,4,.,0,-1.5
O=C(NCc1ccc2c(c1)OCO2)c1ccc(N2CCCCCC2)c([N+](=O)[O-])c1,?,0%,-26,-8%,-12,0.8
O=C(C[n+]1ccccc1)N/N=C/c1ccc(C(=O)O)cc1,-9,5%,0,6%,-4,3.5

Reprinted at random: two entries already listed, in no set order.
SMILES,CtBP-E1A inh,gsp ag,Six1-Eya2 inh,gsp antagonist,D2 PAM,D2 ag
O=C(NCc1ccc2c(c1)OCO2)c1ccc(N2CCCCCC2)c([N+](=O)[O-])c1,?,0%,-26,-8%,-12,0.8
Cc1cc(C(=O)NCc2ccco2)no1,1,-3%,-2,-9%,-7,-1.8

(further entries)
SMILES,CtBP-E1A inh,gsp ag,Six1-Eya2 inh,gsp antagonist,D2 PAM,D2 ag
COc1cc(S(=O)(=O)NCc2ccccc2Cl)ccc1-n1cnnn1,-1,-3%[15.4 µM],-14,-13%,-9,-2.9
COc1ccc(Br)cc1/C=C/C(=O)c1ccc(NC(C)=O)cc1,6,-1%,3,-11%,3,-3.6
Cc1cc(=O)n(C)c2ccc(S(=O)(=O)N3CCOCC3)cc12,.,-12%,2,3%,2,0.3
CSC(=NCc1ccco1)NC#N,.,1%,21,13%,-17,-2.5
CC(=O)Nc1ccc(S(=O)(=O)N2CCn3cccc3C2C)cc1 (configuration not stated),-4,14%,-1,12%,-3,-2.7
O=C1NC2(CCCCCC2)C(=O)N1Cc1ccccc1Cl,3,-4%[15.4 µM],22,0%,5,1.7
COc1ccccc1N1CCN(C(=O)c2cc(=O)c3ccc(C)cc3o2)CC1,.,0%,1,-8%,-7,2.6
COC(=O)c1c(NC(=O)CN2CCN(c3ncccn3)CC2)sc(C(N)=O)c1C,-7,-31%[inhibitor],-28,-11%,-10,-4.4

(continued)
Values run as follows: CtBP-E1A inh	gsp ag	Six1-Eya2 inh	gsp antagonist	D2 PAM	D2 ag
> CCc1cc(S(=O)(=O)N2CCN(C(=O)c3ccco3)CC2)ccc1OC
  3	-20%	5	-1%	-3	-3.6
> O=C(CN1C(=O)NC(c2ccccc2)(c2ccccc2)C1=O)NC1CCCC1
  6	0%	5	5%	-2	6.5
> COC(=O)CC(NC(=O)CN1CCN(c2ccc(F)cc2)CC1)c1cccc(F)c1 (configuration not stated)
  -2	-11%	7	8%	-6	-0.3
> CC(C)c1ccc(NC(=S)NC2CCCCCC2)cc1
  -1	13%	-7	-8%	-10	-1.1
> c1ccc(CNc2ncnc3c2oc2ccccc23)nc1
  -4	?	1	3%	-1	-1.8
> O=c1[nH]c(C2C3CC4CC(C3)CC2C4)nc2ccccc12 (configuration not stated)
  9	5%	-4	11%	-17	-3.2
> O=C(Nc1ccc(-c2nnc(-c3ccccc3)o2)cc1)C(F)(F)F
  12	-17%	6	-2%	-3	-3.1
> C=C(C)COc1ccc(-c2nc(N)nc(C)c2-c2ccc(OC)cc2)c(O)c1
  -6	-1%	?	-10%	2	3.5
> COc1cccc2cc(C(=O)n3ccc(C)n3)c(=O)oc12
  14	-4%	-4	-4%	-6	1.3
> CCCCN(C(=O)c1ccc(S(=O)(=O)N(C)c2ccccc2)cc1)c1c(N)n(CCC)c(=O)[nH]c1=O
  .	-4%	11	10%	-2	-3.3
> COc1ccc(C(CNC(=O)c2ccc(N3CCCC3=O)cc2)N2CCCC2)cc1 (configuration not stated)
  -9	-1%	3	-10%	-25	-0.9
> CC(=O)N[C@@H](Cc1c[nH]c2ccccc12)C(=O)NCCc1ccc(S(N)(=O)=O)cc1
  6	10%[15.4 µM]	0	2%	-1	-2.8
> CCOc1ccc2c(c1)c1nc3ccccc3nc1n2C
  0	?	-2	?	-8	6.9
> Cc1ccc(NC(=O)COC(=O)CCc2c[nH]c3ccccc23)cc1
  1	2%	2	.	-3	-1.5
> CC(C)COC(=O)C1C2C=CC3(CN(C4CCCC4)C(=O)C13)O2 (configuration not stated)
  5	?	4	9%	-1	1.8
> S=c1[nH]c(-c2ccc(Cl)cc2)cs1
  7	6%[15.4 µM]	-15	-9%	-25	3.6
> Nc1ccc(-c2nc3ccc(N)cc3o2)cc1
  -3	25%	-2	-15%	1	1.0
> CS(=O)(=O)c1ccc(NCC2CCCO2)c([N+](=O)[O-])c1 (configuration not stated)
  1	-27%	13	7%	-9	-5.0
> COc1ccc(CCN(Cc2ccccn2)C(=S)Nc2ccccc2C)cc1OC
  -1	-30%	1	-7%	-2	-1.1
> Cc1[nH]n(-c2cccc3ccccc23)c(=O)c1/C=N/NC(=O)c1cccc([N+](=O)[O-])c1
  7	-53%[inhibitor]	-21	-19%	-15	-5.2
> CCN1CCCC1CNC(=O)c1cc2c(OC)c(OC)c(OC)cc2[nH]1 (configuration not stated)
  -11	-3%[15.4 µM]	-11	-15%	-13	-0.1
> CC(C)CN1CCN(Cc2cnc(N3CCOCC3)s2)CC1CCO (configuration not stated)
  -3	-3%[15.4 µM]	6	16%	-5	4.1
> O=C(NCc1ccncc1)c1cc(C(=O)C2CCCCC2)c[nH]1
  4	-5%[15.4 µM]	1	8%	-4	-2.5
> CCOCCCNC(=O)CN1N=C(c2ccc(C)cc2)CCC1=O
  -24	?	-19	0%	-11	1.3
> COc1ccc(OC)c(NC(=O)CSc2nnc(N)s2)c1
  3	2%	-1	9%	18	1.4
> O=C(NCCCN1CCOCC1)c1c(F)cccc1F
  5	?	2	-3%	-1	-2.2
> CCO[C@H]1OC(C(=O)Nc2ccccc2)=C[C@@H](c2ccc(Br)cc2)[C@@H]1CCCO
  -14	.	-8	-18%	2	0.6
> COC(=O)c1sccc1NC(=O)Nc1cc(C)ccc1C
  0	-25%	3	3%	-2	-2.6
> CCc1ccccc1NC(=O)CN(C)C(=O)CSc1nc2cc(Cl)ccc2s1
  1	20%	0	-10%	-17	-4.8
> Cn1c(N)c(C(=O)Nc2ccc3ccccc3c2)sc1=S
  2	-10%	-1	11%	-12	-0.8

In the list so far, 4 contain an aryl thioether with sulfur outside any ring.
Values run as follows: CtBP-E1A inh	gsp ag	Six1-Eya2 inh	gsp antagonist	D2 PAM	D2 ag
> O=C(CSc1nccn1-c1ccc(Cl)cc1)N1CCCc2ccccc21
  -16	-25%	-26	10%	-39	-3.2
> Cn1c(SCc2nc3ccccc3[nH]2)nnc1-c1cccs1
  5	-67%	4	3%	-12	-0.2
> COc1ccc(OC)c(NC(=O)CSc2nnc(N)s2)c1
  3	2%	-1	9%	18	1.4
> CCc1ccccc1NC(=O)CN(C)C(=O)CSc1nc2cc(Cl)ccc2s1
  1	20%	0	-10%	-17	-4.8

Other compounds:
Values run as follows: CtBP-E1A inh	gsp ag	Six1-Eya2 inh	gsp antagonist	D2 PAM	D2 ag
> O=C(Nc1cc(N2CCCCC2)ncn1)c1ccccc1
  -6	5%[15.4 µM]	2	3%	-5	-2.8
> COc1ccc(Br)cc1S(=O)(=O)N1CCCc2ccccc21
  8	17%	-1	-26%	1	-4.8
> O=CNc1cc(-c2ccoc2)cn2c(-c3ccc(F)cc3)cnc12
  -25	.	-11	.	-18	-7.6
> COc1ccc(N2CC(C(=O)NCCc3ccc(OC)c(OC)c3)CC2=O)cc1 (configuration not stated)
  4	?	27	9%	2	-2.5
> CCn1c(C)c(C)c2cc(C(=O)N3CCN(c4cccc(C)c4C)CC3)ccc21
  -22	-2%	-24	-14%	-19	2.1
> Cc1ccc2nsnc2c1S(=O)(=O)N(Cc1cc2cccc(C)c2[nH]c1=O)CC1CCCO1 (configuration not stated)
  3	-12%	3	-3%	7	-3.5
> Cc1cc(Br)ccc1OCC(=O)NNC(=O)C(=O)Nc1ccccc1
  3	14%[15.4 µM]	7	5%	-4	-2.9
> CC(C)Cc1nnc(NC(=O)c2ccc(S(=O)(=O)N3CCCC3)cc2)s1
  9	6%[15.4 µM]	-1	11%	-21	-5.0
